# High-throughput results (PubChem BioAssay)
# AmpC inh no det: blocks E. coli AmpC beta-lactamase in absence of detergent; AmpC nitrocefin hydrolysis, absorbance 480 nm, no detergent; potencies from a single point are estimates; Potency, µM (titrated, usually from 28.7 µM), inactives show top-dose activity change, negative = inhibition; 71,000 tested, 1.8% active; AID 585; active = falling curve, for most hits resting on a single point; inconclusive = weak or doubtful change; inactive = flat or rising curve; note: % of control where 0% means no effect; about half of the hits show no inhibition at the top dose; a quarter of the inactives give rising signals
# Target sequence (P00811 whole entry, looked up): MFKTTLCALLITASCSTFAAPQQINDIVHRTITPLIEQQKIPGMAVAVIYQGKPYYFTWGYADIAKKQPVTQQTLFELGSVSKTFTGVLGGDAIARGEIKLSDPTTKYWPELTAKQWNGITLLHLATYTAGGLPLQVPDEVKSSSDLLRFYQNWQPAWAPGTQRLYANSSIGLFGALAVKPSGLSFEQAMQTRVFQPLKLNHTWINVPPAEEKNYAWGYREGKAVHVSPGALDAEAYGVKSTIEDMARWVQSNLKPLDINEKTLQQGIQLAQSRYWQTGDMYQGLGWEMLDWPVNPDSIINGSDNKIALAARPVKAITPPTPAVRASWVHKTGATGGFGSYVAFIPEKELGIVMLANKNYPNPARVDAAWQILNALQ
#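 AmpC, 20 mM phosphate pH 7.0; 15 min cpd preinc, RT; start with nitrocefin (800 uM stock); A480 kinetic read, 20 s intervals, 4 min. No-enzyme wells = negative control.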
# The depositor's hits bear a star; ? = inconclusive; [ ] = another dose, or the depositor's remark. Potency is the fitted concentration of half-maximal effect. Only part of the results is shown; count on the stated rates, not on these rows.
# Sample of the layout:
SMILES,AmpC inh no det
CCCC(c1nnnn1Cc1ccco1)N1CCN(c2cc(Cl)ccc2C)CC1 (centres undefined),7%
COc1ccc(-n2c(Cc3cccn3C)nnc2SCC(=O)Nc2nccs2)cc1,49%

# The whole of this part, repeating the preview:
SMILES,AmpC inh no det
CCCC(c1nnnn1Cc1ccco1)N1CCN(c2cc(Cl)ccc2C)CC1 (centres undefined),7%
COc1ccc(-n2c(Cc3cccn3C)nnc2SCC(=O)Nc2nccs2)cc1,49%
C=CCNCc1cccn1-c1ccccc1,6%
c1c2c(cc3sc(N4CCOCC4)nc13)OCCO2,-2%
COC(=O)N1CC=CC1(C)C(=O)NCc1ccc(C)o1 (centres undefined),24%
Cc1ccc(S(=O)(=O)N(C)CCCC(=O)Nc2ccccn2)cc1,18%
c1ccc(Cn2nnc3c(NCc4ccc5c(c4)OCO5)nc(C4CC4)nc32)cc1,-2%
COc1ccc(Cl)cc1N1C(=O)C2CCCN2C1c1cccc(F)c1 (centres undefined),46%
C=CCc1cccc(CNc2c(C)n(C)n(-c3ccccc3)c2=O)c1O,25%
O=C(c1cc(C(F)(F)F)cc(C(F)(F)F)c1)N1CCC2(CC1)CN(c1ccccc1)C2,61%
CCc1c(C(=O)OC)ncc2[nH]c3cc(OC)c(OC)cc3c12,59%
CCc1c(O)nc(N2CCN(Cc3ccccc3)CC2)[nH]c1=O,8%
O=C(Cn1c(=O)oc2cc(S(=O)(=O)NCc3ccccc3)ccc21)NCc1ccco1,-15%
Cc1ccc(NC(=O)N2CCC(C(=O)NCc3ccc(F)cc3)CC2)cc1,18%
COCC(=O)Nc1cccc2ccccc12,-2%
N#CCCN,-1%
CCN(CC(=O)Nc1ccc2c(c1)OCO2)Cc1nc2ccccc2c(=O)[nH]1,2%
Cc1nc2cccc([N+](=O)[O-])c2n1CCCN(C)C,-18%[5.75 µM]
CCCCN(C)CCCNC(=O)CCn1nc(-c2ccccc2)ccc1=O,-7%
Cc1ccc(C(=O)N2CCN(C(=O)CN3CCCC3)C2)cc1,17%
Cc1ccc(C)c(N2CCN(CCCNC(=O)Cn3cc4c(n3)CCC(C)C4)CC2)c1 (centres undefined),45%
O=c1[nH]nc2c3ccccc3cnn12,-13%
CCn1c(NCc2ccco2)nc2c1c(=O)n(C)c(=O)n2C,-7%
O=C(NCC1CCCO1)C1CCN(S(=O)(=O)N2CCCC2)CC1 (centres undefined),-3%
COc1ccc(OC)c(C(c2nnnn2C2CCCC2)N2CCN(c3ccccc3F)CC2)c1 (centres undefined),73%
CCOC(=O)c1c(-c2ccc(C)o2)csc1NC(=O)COC(=O)c1cccs1,-16%
C(=NC12CN3CN(CN(C3)C1)C2)c1cccnc1,4%
COCCCN1C(=O)c2ccccc2C1C(=O)NC1CCCCCC1 (centres undefined),-2%
C=CCOc1ccc(/C(O)=C2\C(=O)C(=O)N(CCCOC)C2c2ccncc2)cc1 (centres undefined),1%
Cc1nnc(SCC(=O)N2CCc3ccccc32)n1-c1ccccc1,18%
CC(C)(C)C(=O)N=C1SC2CS(=O)(=O)CC2N1c1ccc2c(c1)OCO2 (centres undefined),25%
NCCP(=O)(O)O,3%[5.75 µM]
Cc1csc2nc(CSc3nncn3-c3ccccc3)c(Br)n12,0%
O=C(O)CCCCNS(=O)(=O)c1ccc(Cl)c(C(F)(F)F)c1,-6%
CCOC(=O)Cc1csc(SCC(=O)Nc2sc3c(c2C(N)=O)CCC3)n1,23%
CCC1CCc2sc(C(=O)O)cc2C1 (centres undefined),-9%
Cn1c(Cc2csc(N)n2)nnc1SCC(=O)NCc1ccccc1,-7%
CCc1c(C)nc(SCC(=O)Nc2cccc(Br)c2)[nH]c1=O,-15%
N#CC(C(=O)NCc1ccccc1)c1nc2ccccc2nc1N1CCCC1 (centres undefined),-2%
CCOc1ccc(CCNC(=O)C2CCN(c3nn4c(=O)cc(C)nc4s3)CC2)cc1OCC,95%
CC(C)OP(=O)(c1ccc(N(C)C)cc1)C(O)c1ccncc1 (centres undefined),3%
Cc1cc(=O)[nH]c(SCC(=O)N2c3ccccc3CC2C)n1 (centres undefined),8%
O=C1CCC(C(=O)NCCCn2ccnc2)N1 (centres undefined),-14%
Cn1c(=O)c(C(=O)c2ccccc2)nc2ccccc21,-10%
CCn1c(COc2ccc3c(c2)OCO3)nnc1SCC(=O)c1ccccc1,45%

# Some of these compounds in order of length of the SMILES, ascending:
SMILES,AmpC inh no det
NCCP(=O)(O)O,3%[5.75 µM]
CCC1CCc2sc(C(=O)O)cc2C1 (centres undefined),-9%
CCc1c(C)nc(SCC(=O)Nc2cccc(Br)c2)[nH]c1=O,-15%
CCc1c(C(=O)OC)ncc2[nH]c3cc(OC)c(OC)cc3c12,59%
CCN(CC(=O)Nc1ccc2c(c1)OCO2)Cc1nc2ccccc2c(=O)[nH]1,2%

# Remaining list, next part
SMILES,AmpC inh no det
COc1ccc(CC(=O)NCc2nnc(SCCOc3ccccc3)n2C)cc1,63%
COc1ccc(NC(=O)c2cc(-c3cccs3)on2)cc1OC,-13%
c1ccc2c(-n3cnnn3)cccc2c1,-1%
O=C(O)C1CCCCC1C(=O)Nc1cccc(C(=O)N2CCCCC2)c1 (centres undefined),5%
Cc1ccc(S(=O)(=O)Nc2ccc3oc(=O)sc3c2)c(C)c1,?
COc1ccc(Cn2c(=O)[nH]c3cc(C(=O)NCCCN4CCCCC4)ccc3c2=O)cc1,24%
CCCC(=O)Nc1ccc2nc(SCC(=O)Nc3nccs3)sc2c1,-16%
Cn1c(=O)c2cc(S(=O)(=O)Nc3cccc(F)c3)ccc2n(C)c1=O,0%
CCS(=O)(=O)n1nc(-c2ccc(Cl)cc2)nc1N,-2%
O=C(NCc1ccco1)C1CCN(c2nnc(-n3cccc3)s2)CC1,38%
COCCn1c(=O)c(-c2cccc(Cl)c2)nc2cncnc21,14%
CNC(=O)N(O)C1N(C)C(=O)N(Cc2ccccc2)C1(C)C (centres undefined),-3%
O=C(COn1nnc2ccc(Cl)cc21)NCc1ccccc1,-6%
CC(NC(=O)c1cccc(N2CCCC2=O)c1)c1ccc2c(c1)OCCO2 (centres undefined),6%
O=c1[nH]c2cc3c(cc2cc1C(c1nnnn1Cc1ccccc1)N1CCN2CCCC2C1)OCCO3 (centres undefined),81%
CC(=O)OCC1=C(C(=O)[O-])N2C(=O)[C@@H](NC(=O)CCC[C@@H](N)C(=O)[O-])[C@@H]2SC1.[Zn+2],1%
O=C(O)CCCC(=O)N1CCN(c2nc(-c3ccccc3)c3ccccc3n2)CC1,17%
O=C(O)c1ccc(NS(=O)(=O)Cc2ccccc2)cc1,-1%[5.75 µM]
CCn1nnc(-c2ccccc2NS(=O)(=O)c2ccc(C(=O)OC)cc2)n1,19%
CCOc1ccccc1C(=O)N1CCN=C1SC,-2%
COC(=O)c1nc(-c2ccc(C)cc2)oc1N(C)C,25%
O=C(NCc1ccco1)c1cnn2c(C(F)(F)F)cc(-c3cccs3)nc12,19%
CC1CCc2nn(CC(=O)Nc3ccc(F)cc3F)cc2C1 (centres undefined),0%
O=c1cc(-c2ccccc2)c2ccccc2[nH]1,-2%
Cc1c(NC(=O)c2ccccc2N)cccc1C(=O)O,7%
CCOc1ccc(N2C(=O)CC(SC(=NC)Nc3cccc(F)c3)C2=O)cc1 (centres undefined),46%
COc1ccccc1N(C(=O)c1snc(C(N)=O)c1N)C(C(=O)NC1CCCC1)c1ccco1 (centres undefined),40%
CCN(CC)c1nc(Nc2ccccc2)nc(Oc2ccc(=O)n(C)n2)n1,102%
Cc1noc(C)c1S(=O)(=O)Nc1ccc(C(=O)N2CCN(c3ccc(Cl)cc3)CC2)cc1,35%
C=C1Cn2c(nnc2-c2ccc(Cl)cc2)S1,4µM*[single pt active]
CCOC(=O)CSc1nc2ccccc2c(=O)n1CC1COc2ccccc2O1 (centres undefined),9%
CCc1ccc(NC2=NCC(=O)N2c2ccc3c(c2)OCCO3)cc1,16%
O=C(CN1CCN(S(=O)(=O)c2ccc(F)cc2)CC1)Nc1ccc2c(c1)OCCO2,50%
Cc1cccc(CS(=O)(=O)Cc2ccc(C(=O)O)o2)c1,-4%
CC(Oc1ccccc1)C(=O)NC1CCN(Cc2ccccc2)CC1 (centres undefined),10%
Cc1ccc2c(C(=O)CN3CCN(c4ccccc4)CC3)c(C)[nH]c2c1,52%
CCCCNC(=O)C(c1ccc(OCC(=O)OC)c(C(=O)OC)c1)N(CCC1=CCCCC1)C(=O)CCCCCN1C(=O)NC(c2ccc(-c3ccccc3)cc2)C(C(=O)OCc2ccccc2)=C1C (centres undefined),20%
Cn1nc(C(C)(C)C)cc1C(=O)Nc1nc2c(s1)C(=O)CC(C)(C)C2,12%
Cc1c(C(=O)O)oc2ccc(S(=O)(=O)N3CCCCC3C(=O)O)cc12 (centres undefined),-3%
O=C(c1cnc2sccn2c1=O)N1CCc2ccccc2C1,2%
O=C(Nc1ccccc1N1CCCC1)c1cccnc1,-7%
Cc1ccc(N(C(=O)C2CCC(=O)N2)C2(C(=O)NC3CCCCC3)CCCCC2)cc1 (centres undefined),108%
COC(=O)N1[C@H](C)C=C[C@]1(Cc1ccccc1)C(=O)NCc1ccccn1,40%
NC(N)=NC(N)=Nc1c(F)c(F)c(F)c(F)c1F,-1%[5.75 µM]
CCSC(C)CC1CC(=O)CC(=O)C1 (centres undefined),35%
CCOCc1nnc(NS(C)(=O)=O)s1,-9%
Clc1ccc(Cn2nnc(-c3ccc(N4CCOCC4)cc3)n2)cc1,40%
COC(=O)C(C)Sc1nc(-c2ccc(OC)cc2)nc2c1c(=O)n(C)c(=O)n2C (centres undefined),32%
Cn1nnnc1SCc1cccc(CSc2nnnn2C)n1,-5%
COc1ccc(N2CCN(C(=O)CSc3nnc(Cn4nnc5ccccc54)n3C)CC2)cc1,67%
CCNc1ncc2nc(-c3cc(F)cc(F)c3)c(=O)n(CCOC)c2n1,36%
O=C(Nc1ccc(Cc2ccncc2)cc1)c1ccc(S(=O)(=O)N2CCOCC2)cc1,76%
CCn1c(C)nc2cc(-c3nnc(-c4c(-c5ccccc5)noc4C)o3)ccc21,133%
Cc1ccc(S(=O)(=O)N2c3ccccc3NC(=O)C2CC(=O)Nc2ccccc2)cc1 (centres undefined),10%
O=C(CSc1ncnc2nc[nH]c12)NCCc1ccccc1,0%
Cc1ccc(CNC(=O)CCNS(=O)(=O)c2ccc3c(c2)c(=O)n(C)c(=O)n3C)cc1,27%
CN(C)C(=O)CSc1nnc([C@@H](N)Cc2ccccc2)o1,5%
CCCn1ncc(C(=O)O)c1C,-16%
COc1ccc(N(CC(=O)NC2CCCC2)C(=O)CCC(=O)Nc2cc(C)on2)c(OC)c1,53%
COC(=O)c1cc(OC)c(OC)cc1NC(=O)CCC1CCCC1,108%

# In a second layout: entries from further up
Compound	AmpC inh no det
Cn1nnnc1SCc1cccc(CSc2nnnn2C)n1	-5%
COc1ccc(N2CCN(C(=O)CSc3nnc(Cn4nnc5ccccc54)n3C)CC2)cc1	67%
CCNc1ncc2nc(-c3cc(F)cc(F)c3)c(=O)n(CCOC)c2n1	36%
O=C(Nc1ccc(Cc2ccncc2)cc1)c1ccc(S(=O)(=O)N2CCOCC2)cc1	76%
CCn1c(C)nc2cc(-c3nnc(-c4c(-c5ccccc5)noc4C)o3)ccc21	133%
Cc1ccc(S(=O)(=O)N2c3ccccc3NC(=O)C2CC(=O)Nc2ccccc2)cc1 (centres undefined)	10%

# (further entries)
SMILES,AmpC inh no det
O=C(CCc1nc2ccccc2[nH]1)N1CCN(C(=O)c2ccco2)CC1,-12%
CCCCCn1c(CN(C)Cc2ccccc2)nc2c1c(=O)n(C)c(=O)n2C,121%
CCN(CC)c1ccc(C(NC(C)=O)NC(C)=O)cc1,1%
CCc1ccc2c(COn3nnc4ccc(S(=O)(=O)N(C)C)cc43)cc(=O)oc2c1,82%
CCOC(=O)C1=C(C)Nc2ncnn2C1c1c[nH]c2ccccc12 (centres undefined),-4%
CCOC(=O)N1CCC(NC2CCCCCCC2)CC1,-9%
Cc1ccc(NC(=O)CC2SCCNC2=O)cc1Cl (centres undefined),4%
CC(C)CNC(=O)CSc1nnc(CN2CCCCCC2=O)n1-c1ccccn1,2%
COc1ccc(OC)c(-c2csc(N(Cc3ccco3)C(=O)c3cccs3)n2)c1,4%
Cn1c(SCC(=O)NCc2cccs2)nnc1-c1cccs1,-1%
CCOC(=O)C1CCN(C(=O)c2ccc(Cl)c(NC3=NC4CS(=O)(=O)CC4S3)c2)CC1 (centres undefined),4µM*[single pt active]
CN(C(=O)COc1cccc(Br)c1)C1CCS(=O)(=O)C1 (centres undefined),9%
CCOC(=O)C1=C(C)NC(=O)CC1c1ccccc1 (centres undefined),0%
CCCCOc1ncnc2c1[nH]c1ccccc12,-4%
Cc1ccc2nc(NC3=NCN(C4CCCCC4)CN3)nc(C)c2c1,-16%

# Taken from above:
# CC(NC(=O)c1cccc(N2CCCC2=O)c1)c1ccc2c(c1)OCCO2 (centres undefined) in AmpC inh no det shows 6%
# O=C(c1cnc2sccn2c1=O)N1CCc2ccccc2C1 in AmpC inh no det shows 2%
# COc1ccc(CC(=O)NCc2nnc(SCCOc3ccccc3)n2C)cc1 in AmpC inh no det shows 63%
# c1c2c(cc3sc(N4CCOCC4)nc13)OCCO2 in AmpC inh no det shows -2%

# New compounds follow
SMILES,AmpC inh no det
O=C(Nc1ccc2c(c1)OCCO2)C1CCN(S(=O)(=O)c2ccc(Br)s2)CC1,-23%
CCOC(=O)C1CCN(S(=O)(=O)c2ccc3[nH]c(=O)oc3c2)CC1,11%
CCCCC(=O)Nc1nn(CCC)c2nc3ccccc3cc12,20%
Cn1c(SCC(=O)OC2CCCCC2)nnc1-c1ccc2c(c1)OCO2,18%
Cc1cc(NC(=O)CCC(=O)N(c2ccccc2)C(C(=O)NC2CCCC2)c2ccncc2)no1 (centres undefined),36%
Cc1nn(C)cc1NC(=O)CCSc1nc(-c2ccco2)cc(C(F)(F)F)n1,70%
Cc1cccc(C)c1OCc1nnc2c3cnn(C)c3ncn12,22%
COc1cccc(NC2SC(=O)N(c3ccccc3)C2=O)c1 (centres undefined),4µM*[single pt active]
c1ccc2c(c1)CCN(Cc1nnnn1Cc1ccc3c(c1)OCO3)C2,14%
